KCNQ2 inh: KCNQ2 channel blockers in CHO-K1 cells – cell-based, FluxOR thallium flux, B-score, primary screen (AID 2156) | B-score at 10 µM | 1.1% of 310,000 active | O88943 | 20 min; active compounds read low; only compounds with negative scores are shown here; some inactives read as strong as hits;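 active = fluorescence ratio B-score at most minus 3 library SDs, with starting brightness B-score within 2 library SDs, cut at about -5.5 in these data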
Target sequence (O88943 whole entry, looked up): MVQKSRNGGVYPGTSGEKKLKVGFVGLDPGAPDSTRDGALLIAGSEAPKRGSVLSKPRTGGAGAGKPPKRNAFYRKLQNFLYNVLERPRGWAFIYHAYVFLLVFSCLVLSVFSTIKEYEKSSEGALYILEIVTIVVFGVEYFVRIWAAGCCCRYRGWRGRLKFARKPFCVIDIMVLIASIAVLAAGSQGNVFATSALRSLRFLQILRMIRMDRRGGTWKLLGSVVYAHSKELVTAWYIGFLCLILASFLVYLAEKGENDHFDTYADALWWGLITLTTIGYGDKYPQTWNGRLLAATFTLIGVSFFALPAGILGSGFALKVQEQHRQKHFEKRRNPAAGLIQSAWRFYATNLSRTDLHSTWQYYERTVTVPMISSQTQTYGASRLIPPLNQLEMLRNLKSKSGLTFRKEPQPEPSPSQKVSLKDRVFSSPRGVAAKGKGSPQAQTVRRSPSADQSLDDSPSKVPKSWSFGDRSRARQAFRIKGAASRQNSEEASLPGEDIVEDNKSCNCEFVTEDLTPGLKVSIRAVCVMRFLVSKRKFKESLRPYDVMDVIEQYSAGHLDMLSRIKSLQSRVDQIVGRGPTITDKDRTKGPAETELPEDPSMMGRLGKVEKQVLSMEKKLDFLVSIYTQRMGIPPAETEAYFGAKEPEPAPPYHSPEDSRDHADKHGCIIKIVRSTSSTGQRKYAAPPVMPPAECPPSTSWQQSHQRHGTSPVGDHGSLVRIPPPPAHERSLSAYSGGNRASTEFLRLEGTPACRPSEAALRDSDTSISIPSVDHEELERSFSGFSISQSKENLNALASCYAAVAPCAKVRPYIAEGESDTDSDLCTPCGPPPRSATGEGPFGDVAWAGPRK
KCNQ2 inh baseline: also measured in KCNQ2 inh; calls as there; B-score; measured here: initial fluorescence intensity artifact check;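 brightness before thallium and not channel activity; 0 = typical well and far values either way flag optical interference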
* marks the source's active call; other numbers are inactive results; i = inactive.

canonical_smiles | KCNQ2 inh | KCNQ2 inh baseline
CC(=O)Nc1c2c(nn1-c1ccc(C)cc1C)CS(=O)C2 (stereo not given) | i | -0.56
Cc1ccc(-c2ccc(C(=O)O)[nH]2)cc1 | i | 1.9
CN1CCN(S(=O)(=O)c2ccc(NC(=O)Nc3cccc(Cl)c3)cc2)CC1 | i | 0.04
Cc1cccc(SC2CCN(Cc3nc(CC4CC4)no3)CC2)c1 | i | -2.1
CCC1CCCCN1C(=S)NC1CCCCC1 (stereo not given) | i | 0.18
COC(=O)[C@@H](NC(=O)NCc1ccco1)C(C)C | i | -0.91
CCOc1ccccc1NC(=O)c1ccccc1-c1ccccc1 | -5.6* | 0.79*
O=C(/C=C/c1cccs1)Nc1scc(-c2ccccc2)c1C(=O)O | i | -1.4
COc1cc(CCC(=O)NCc2ccc3c(c2)OCO3)cc(OC)c1OC | i | 0.53
O=C(c1ccncc1)c1ccc(N2CCN(C3CC(=O)N(Cc4cccs4)C3=O)CC2)cc1 (stereo not given) | i | 2.1
N=c1sccn1CC(=O)Nc1cc(Cl)ccc1[N+](=O)[O-] | i | -0.8
CC(C(=O)Nc1cccc(S(=O)(=O)N2CCOCC2)c1)N1CCN(C)CC1 (stereo not given) | i | 0.03
CCCn1nnc(NC(=O)C(c2ccccc2)c2ccccc2)n1 | i | 0.23
CCC(C)n1c(NC(=O)c2ccccc2)c(C#N)c2nc3ccccc3nc21 (stereo not given) | i | 2.1
O=C(CCCN1C(=O)/C(=C\c2ccco2)SC1=S)Nc1ccc2ccccc2c1 | i | -2.2
Cc1ccccc1/C=C1\OC(=O)c2ccccc21 | i | -1.2
COc1ccccc1C(=O)N1C(CC(=O)Nc2cc(Cl)ccc2C)C(=O)NC2CCCCC21 (stereo not given) | i | 0.33
CC(C)C(=O)NC(c1ccc(Cl)cc1Cl)c1ccc2cccnc2c1O (stereo not given) | i | 0.19
COc1cc(C(=O)O[C@H]2C/C(C)=C/CC[C@@]3(C)O[C@@H]3[C@H](O)[C@@H]2C(C)C)cc(OC)c1OC | i | 0.73
Cc1ccc(C(=O)N2c3ccc(F)cc3CCC2C)o1 (stereo not given) | i | 0.58
CC(C)OC(=O)CSc1nc2cc3c(cc2cc1C#N)OCO3 | i | -1.3
CCC(C(=O)NCc1ccc(F)cc1)N(Cc1ccco1)C(=O)c1snc(C(N)=O)c1N (stereo not given) | i | -0.68
COc1ccc(CCN2C(=O)NC(NC(=O)CC(C)C)(C(F)(F)F)C2=O)cc1OC (stereo not given) | i | 1.1
CCN(CC)S(=O)(=O)c1ccc(NN=C2CCN(C)CC2)c([N+](=O)[O-])c1 | i | 2.8
O=C(O)C(Cc1ccc(F)cc1)c1ccccc1 (stereo not given) | i | 0.3
CCOc1ccc(N(Cc2ccc(OC)c(OC)c2)C(=O)c2ccco2)cc1 | i | 0.03
Cc1cc2cc(CNC(=O)c3ccc(S(=O)(=O)N4CCCCC4)cc3)ccc2[nH]1 | i | -0.96
c1ccc(Cc2cc[n+](Cc3ccccn3)cc2)cc1 | i | 1
COc1ccccc1C1CCN(C(=O)c2ccc(C(C)(C)C)cc2)CC1 | -6.5* | 0.8*
CC(=O)NC(CC(=O)Nc1nccs1)c1ccccc1 (stereo not given) | i | 0.59
COc1cccc(NC(=O)CN2C(=O)COc3ccc(Cl)cc32)c1 | i | 1.3
CCOC(=O)CSc1nc(-c2ccccn2)ncc1OC | i | 0.04
CCCn1nc(CC(=O)O)c2ccccc2c1=O | i | -0.5
COC(=O)c1cc2ccccc2n1Cc1ccc(Cl)nc1 | i | -0.3
Cc1ccc(NC(=O)CC(NCCN2CCOCC2)C(=O)O)cc1Cl (stereo not given) | i | 0.51
CCOC(=O)C1=C(CSc2nc3c(cc2C#N)CCC3)OC(N)=C(C#N)C1c1ccccc1 (stereo not given) | i | -1.1
COc1cc2c(cc1OC)C(c1ccc(N(C)C)cc1)NCC2 (stereo not given) | i | 0.06
COc1ccc(CCNC(=O)C/C(C)=N/NC(=O)c2ccc(N)cc2)cc1OC | i | -1.3
O=[N+]([O-])c1cccc(Cl)c1CSc1ccccn1 | i | -0.88
CCOc1ccc(NS(=O)(=O)c2ccc(C(=O)N3CCN(c4ncccn4)CC3)cc2)cc1 | i | -0.25
NS(=O)(=O)c1ccc(NC(=O)c2cc(Cl)ccc2Cl)cc1 | i | -0.19
CCOC(=O)c1c(NC(=O)Cc2cccs2)sc(C(=O)NC2CCCC2)c1C | i | -0.19
COC(=O)C1CCN(CC(=O)Nc2ccccc2Sc2ccccc2)CC1 | i | -0.44
Cn1c(NC(=O)c2ccc(F)cc2)c(-c2ccccn2)c(=O)c2ccccc21 | i | -0.84
COc1ccc(CNC(=O)c2ccccc2[N+](=O)[O-])cc1 | i | -1.4

The closing 7 compounds of the part above come first, to join the parts:
canonical_smiles | KCNQ2 inh | KCNQ2 inh baseline
O=[N+]([O-])c1cccc(Cl)c1CSc1ccccn1 | i | -0.88
CCOc1ccc(NS(=O)(=O)c2ccc(C(=O)N3CCN(c4ncccn4)CC3)cc2)cc1 | i | -0.25
NS(=O)(=O)c1ccc(NC(=O)c2cc(Cl)ccc2Cl)cc1 | i | -0.19
CCOC(=O)c1c(NC(=O)Cc2cccs2)sc(C(=O)NC2CCCC2)c1C | i | -0.19
COC(=O)C1CCN(CC(=O)Nc2ccccc2Sc2ccccc2)CC1 | i | -0.44
Cn1c(NC(=O)c2ccc(F)cc2)c(-c2ccccn2)c(=O)c2ccccc21 | i | -0.84
COc1ccc(CNC(=O)c2ccccc2[N+](=O)[O-])cc1 | i | -1.4
CC(=O)c1ccc(NC(=S)NC(=O)/C=C/c2ccco2)cc1 | i | 0.25
COC(=O)c1nc(-c2ccccc2)n[nH]1 | i | -2
CCOc1ccccc1NC(=S)Nc1ccc2cn[nH]c2c1 | i | 1.9
CC(=O)Nc1ccc(CN2CCN(Cc3ccc(C)cc3)C(CCO)C2)cc1 (stereo not given) | i | -3.1
O=C(COC(=O)CCNS(=O)(=O)c1ccccc1)NNC(=O)c1ccccc1 | i | 1.5
O=c1[nH]c(=S)[nH]c2[nH]c(=S)[nH]c12 | i | 0.51
CCN1CCN(CCCN(Cc2ccco2)C(=S)Nc2ccc(Cl)c(C)c2)CC1 | i | 0.39
COc1ccc(NC(=O)c2ccccn2)cc1 | i | 0.21
CCOc1ccccc1OCCN1CCC(Cc2ccccc2)CC1 | i | -1.9
CCNC(=S)/C(=C(/[O-])c1ccc([N+](=O)[O-])cc1)[n+]1ccccc1 | i | 0.07
CCOC(=O)C1=C(CSc2nc3ccccc3s2)NC(=O)NC1c1cc(C)ccc1C (stereo not given) | i | -1.5
Cc1nn(-c2ccccc2)c2sc(C(=O)NC3CCCCC3)cc12 | i | 2.2
Cc1ccc(NC(=O)C2CCC(N3C(=O)C4CCCCC4C3=O)CC2)cc1 (stereo not given) | i | -1.2
CC(C)(C)c1ccc(S(=O)(=O)Nc2cccc(C3OCCCO3)c2)cc1 | i | 0.22
CCOC(=O)C1CNc2cc(S(=O)(=O)CC)ccc2O1 (stereo not given) | i | 0.51
CC/C(C)=N/NS(=O)(=O)c1ccc(C)c([N+](=O)[O-])c1 | i | -1
CCOc1ccccc1N1CCN(C(=O)Nc2ccc(Cl)c(Cl)c2)CC1 | i | 0.97
Cc1cc(Cl)ccc1NC(=S)NCCC(c1ccccc1)c1ccccc1 | i | -1
COc1ccc(OC)c(C(=O)CSc2nnc(-c3cccnc3)n2C)c1 | i | -0.14
CC(C)(CNS(=O)(=O)c1ccc(Cl)cc1)N1CCCCC1 | i | -0.71
CCNC(=O)CC1SC(=Nc2cccc3ccccc23)N(C)C1=O (stereo not given) | i | -0.23
Brc1ccc(CSc2ccc3nnc(-c4cccnc4)n3n2)cc1 | i | 2
COc1cc(NC(=O)C2CCCN2C(=O)OCc2ccccc2)cc(OC)c1 (stereo not given) | i | 2.6
COc1ccccc1CN(C)CC(=O)Nc1ccc(Cl)cc1F | i | 0.43
CCC(C)NCCOCCOc1ccc(C)cc1OC (stereo not given) | i | 0.99
O/N=C/c1cc(Br)cc(Br)c1OCc1ccccc1 | -5.6* | -1.5*
O=C1C2CCCCC2C(=O)N1Cc1ccccc1 (stereo not given) | i | -0.15
CCc1ccc(N=c2c([N+](=O)[O-])nn(-c3ccccc3)n2O)cc1 | i | -0.92
COc1ccc(OC)c(Nc2cc(C(=O)NCCCN3CCOCC3)c3ccccc3n2)c1 | i | 0.09
Cc1ccc(S(=O)(=O)NCc2cccnc2)cc1 | i | -0.15

Other entries follow.
Below each compound: KCNQ2 inh	KCNQ2 inh baseline
O=C(OCc1nc2ccc(Cl)cc2n1CCO)c1ccc2c(c1)OCO2
 : i	-0.99
CC(C)c1[nH]c(=O)c(C#N)c2c1CSC(C)(C)C2
 : i	1.4
COc1ccc2c(c1OC)C(=O)N1C2SC(C)(C)[C@H]1C(=O)NCC(C)C (stereo not given in full)
 : i	-0.24
Cc1nc2cc(N3CCOCC3)c(NC(=O)C3CC3)cc2c(=O)n1Cc1ccccc1
 : i	-0.37
Cc1cc(NC(=O)Cn2nc(-c3ccccc3F)ccc2=O)ccc1-n1cnnn1
 : i	0.91
Cc1cccc(NC(=O)c2ccc(S(=O)(=O)N3CCCCC3)cc2)n1
 : i	0.6
CCC(Sc1ccccc1C(=O)O)C(=O)O (stereo not given)
 : i	1.4
O=C(NCc1ccc(F)cc1)c1cnccn1
 : i	-0.29
Cc1cc2c(cc1C)N(C(=O)CN1C(=O)c3ccccc3C1=O)C(C)(C)c1ssc(=S)c1-2
 : i	-1.2
CCN(C(=O)CSc1nnc(NC2CCCCC2)s1)C1CCS(=O)(=O)C1 (stereo not given)
 : i	0.08
CCN(CC)C(=O)Cn1cnc([N+](=O)[O-])n1
 : i	0.28
Cc1ccc(-c2noc(CN(C(=O)CCN3C(=O)c4ccccc4C3=O)C(C)C)n2)cc1
 : -5.7*	0.52*
O=C(CSc1ccc(-c2cccs2)nn1)Nc1ccccc1F
 : i	-1.1
O=C(C[n+]1ccccc1)N1c2ccccc2Sc2ccccc21
 : i	0.2
O=C(CN1C(=O)/C(=C\c2ccc(F)cc2)Oc2ccccc21)N1CCN(c2ccccn2)CC1
 : i	1.5
COc1cc(NC(=O)Cn2cnc(S(=O)(=O)N3CCc4ccccc43)c2)cc(OC)c1OC
 : i	0.01
CC1=C/C(=N\NC(=S)NCCc2ccccc2)CC(C)(C)C1
 : i	0.96
CCCC(=O)NC(c1ccc(OC)c(OC)c1)c1cc(Cl)c2cccnc2c1O (stereo not given)
 : i	0.02
CC(=O)N1CCc2c(sc(NC(=O)c3ccc4c(c3)OCCO4)c2C#N)C1
 : i	-2.4
O=C1N(c2ccccc2)C(=Nc2ccccc2)SC12CC2
 : i	0.88
O=C(Cc1ccccc1)NC1CCN(S(=O)(=O)c2ccc(C(=O)O)cc2)CC1
 : i	1
COc1ccc(CCNC(=O)c2cc(-c3ccc(Cl)c(Cl)c3)oc2C)cc1
 : i	-0.9
CC(=O)OC[C@H]1O[C@@H](Sc2cccc3cccnc23)[C@H](OC(C)=O)[C@@H](OC(C)=O)[C@H]1OC(C)=O
 : i	0.62
NCC(O)(c1ccc(Cl)cc1)c1ccc(Cl)cc1
 : i	-0.3
Nc1c(-c2ccccc2)c(CN2CCOCC2)nn1-c1ccccc1
 : i	-0.73
CC(=O)c1c(C(C)=O)c(C)n(NC(=O)c2ccncc2)c1C
 : i	-0.61
COc1cc(C(=O)NCCCNc2ccc([N+](=O)[O-])cc2)cc(OC)c1OC
 : i	-0.2
COc1ccc(C#Cc2ccc3c(=O)c4ccccc4n(C)c3c2)cc1
 : i	-0.62
Cc1cc(N2C(=O)C(O)=C(C(=O)c3ccco3)C2c2cccc(O)c2)no1 (stereo not given)
 : i	-0.42
CC1(c2ccc([N+](=O)[O-])cc2)NC(=O)N(CC(=O)c2ccc3c(c2)OCO3)C1=O (stereo not given)
 : i	1.8
CCOC(=O)C1=C(C)n2c(s/c(=C/c3cccc([N+](=O)[O-])c3)c2=O)=NC1c1ccc(O)c(OC)c1 (stereo not given)
 : -6.1*	-1*
COc1ccc(S(=O)(=O)N2CCC(C(=O)NCCCn3ccnc3)CC2)cc1C
 : i	1.1
COC(=O)Cc1cccc2c(=O)c3ccccc3oc12
 : i	0.01
CCOc1cc(C)ccc1OCc1nnc(SCC(=O)c2cccc([N+](=O)[O-])c2)n1C
 : i	-0.25
CCCc1nc(SCC(=O)N2c3ccccc3CC2C)c2c(C)c(C)sc2n1 (stereo not given)
 : i	-0.38
Cc1ccc(/C=C/C(=O)O)cc1S(=O)(=O)N1CCc2ccccc2C1
 : i	-0.58
N#CCN1CCN(CC(=O)c2ccc(Br)cc2)CC1
 : i	0.81
CN1CCN(c2nnc(-c3ccc(F)cc3)c3ccccc23)CC1
 : i	-0.02
CNC(=O)c1ccccc1NC(=O)c1ccco1
 : i	-1.5
Cc1ccc(-n2nnnc2SC(C)C(=O)Nc2ccccc2-c2ccccc2)cc1 (stereo not given)
 : i	-0.09
COc1cccc(-n2nc(C#N)c(Cl)cc2=O)c1
 : i	-0.51
COc1cc(/C=C2\SC(=S)N(CC(=O)NC(C)(C)C)C2=O)cc(OC)c1OC
 : i	0.01
O=C(CSc1ncnc2c1oc1ccccc12)NC1CCCC1
 : i	2.2

Compound profiles, from the list above. Screens in order: KCNQ2 inh | KCNQ2 inh baseline
Entry for `Cc1ccc(/C=C/C(=O)O)cc1S(=O)(=O)N1CCc2ccccc2C1` = i | -0.58
Entry for `COC(=O)Cc1cccc2c(=O)c3ccccc3oc12` = i | 0.01
Entry for `Cc1ccc(-n2nnnc2SC(C)C(=O)Nc2ccccc2-c2ccccc2)cc1` (stereo not given) = i | -0.09
Entry for `O=C(CSc1ncnc2c1oc1ccccc12)NC1CCCC1` = i | 2.2
Entry for `CN1CCN(c2nnc(-c3ccc(F)cc3)c3ccccc23)CC1` = i | -0.02

Not all compounds are listed; count on the stated rates, not on these rows.
